Assay outcomes from PubChem BioAssay.
CtBP-E1A inh: blocks the CtBP interaction with E1A; activity change, % (concentration not given with the values); actives 0.49% (n = 340,000); AlphaScreen GST-E1A/His-CtBP binding, 1536-well; stronger effect = lower value; control for the full effect not named in the record; AID 651724; in the data active means activity change below about -65%; inconclusive means about -30% to -65%; inactive means above about -30%; further: on the % scale 0 is the no-effect control and ±100 the full control effect
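Steps: dispense buffer (Tris pH 8.0, NaCl 300 mM, TCEP 1 mM, BSA, Tween 20); add 5X protein mix (GST-E1A, His-CtBP, 125 nM each); pin 23 nL compound; 2 h at 37 °C, dark; add 5X beads (50 ug/mL); 1 h; read.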
TRPV1 PAM: potentiators of human vanilloid receptor 1 (TRPV1); Q8NER1; TRPV1-expressing cells, Fluo-8 calcium influx, capsaicin EC20 potentiation; host cell line not named in the record; control for the full effect not named in the record; potentiation, % at 8.33 µM; actives 0.02% (n = 320,000); AID 540277; active means potentiation above 80%; inconclusive means 30% to 80%; inactive means below 30%; further: 0% is about no effect
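Cells expressing TRPV1 were dye-loaded with Fluo-8 and read kinetically: 10 s baseline, 3 min after compound (agonist portion), then 2 min after EC20 capsaicin (allosteric enhancer portion). Calcium-bound dye fluorescence at 480/520 nm.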
Sfp inh: Sfp phosphopantetheinyl transferase inhibition | Q9F4F7 | Biochemical Sfp PPTase activity, qHTS | Potency, µM, for inactives: max response, negative = inhibition, hits mostly inhibitors | actives 3.5% (n = 310,000); active means well fitted inhibition curve with a large enough effect; inconclusive means small, poorly fitted or top-dose-only effect, or another doubt; inactive means no such curve, though single readings can be large or run the other way;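 further: the enzyme is Sfp with the accession as filed and its product quenches rhodamine fluorescence; potency means the concentration at half of the fitted maximal effect; 0% = enzyme reaction without inhibitor and -100% = no enzyme wells; top concentration of the series not given in the record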
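Step 1, compound plus 15 nM Sfp-PPTase, 15 min, room temperature. Step 2, add rhodamine-CoA (5 uM) and BHQ-2-YbbR (12.5 uM). Step 3, read 525/598 nm fluorescence at 0 and 30 min.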
Six1-Eya2 blk: inhibitors of human Six1/Eya2 interaction. Q15475+O00167. AlphaScreen GST-Six1/His-Eya2 binding, biochemical; stronger effect = lower value; control for the full effect not named in the record. activity change, % (concentration not given with the values). actives 0.56% (n = 360,000). AID 651725; in the data active = activity change below about -65%; inconclusive = about -30% to -65%; inactive = above about -30%; further: on the % scale 0 is the no-effect control and ±100 the full control effect
Target sequence (O00167 whole entry, looked up): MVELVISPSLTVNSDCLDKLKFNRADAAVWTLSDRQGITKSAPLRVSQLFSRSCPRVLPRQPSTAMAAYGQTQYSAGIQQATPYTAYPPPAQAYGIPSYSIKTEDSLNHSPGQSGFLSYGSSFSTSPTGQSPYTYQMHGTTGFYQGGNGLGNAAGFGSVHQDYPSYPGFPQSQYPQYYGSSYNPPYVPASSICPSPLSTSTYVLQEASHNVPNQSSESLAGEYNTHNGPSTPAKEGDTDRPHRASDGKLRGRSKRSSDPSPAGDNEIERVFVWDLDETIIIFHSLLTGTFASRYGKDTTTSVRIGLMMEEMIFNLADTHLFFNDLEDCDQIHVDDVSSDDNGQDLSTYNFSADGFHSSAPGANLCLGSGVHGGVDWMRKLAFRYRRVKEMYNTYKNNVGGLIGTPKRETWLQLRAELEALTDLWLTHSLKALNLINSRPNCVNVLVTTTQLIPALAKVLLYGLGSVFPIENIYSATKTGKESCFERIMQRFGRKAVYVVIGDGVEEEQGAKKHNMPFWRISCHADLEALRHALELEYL
Target sequence (Q15475 whole entry, looked up): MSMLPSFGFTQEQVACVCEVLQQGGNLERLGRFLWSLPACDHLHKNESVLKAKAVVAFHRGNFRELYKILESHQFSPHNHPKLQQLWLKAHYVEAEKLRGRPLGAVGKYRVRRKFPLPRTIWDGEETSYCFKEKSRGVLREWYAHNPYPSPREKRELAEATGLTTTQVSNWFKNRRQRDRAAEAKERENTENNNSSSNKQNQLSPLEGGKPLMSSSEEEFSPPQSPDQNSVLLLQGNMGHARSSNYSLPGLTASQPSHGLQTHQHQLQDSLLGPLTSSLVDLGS
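AlphaScreen luminescence read after one hour at 37 °C in darkness. Pin-transferred compounds met GST-Six1 and His-Eya2 protein (5X stock 250 nM/500 nM) plus glutathione donor and Ni-chelate acceptor beads (5X, 50 ug/mL).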
PINK1 expr mod: PINK1 expression modulation. PINK1 immunofluorescence, high-content cytometry, 24 h. Potency, µM (doses to about 76.6 µM), without a hit: at the top dose activation (PINK1 increase), usual class: activators. actives 0.2% (n = 410,000). AID 624263; active = well fitted activation curve with a large enough effect; inconclusive = small, poorly fitted or top-dose-only effect; inactive = flat fitted curve, though single readings scatter; cell line not stated here;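 further: potency means the concentration at half of the fitted maximal effect; % of control where 0% means no effect; nearly all actives have a fitted effect of over 65% in size; a mitochondrial uncoupler was the plate control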
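Stable cell line, 250 cells/well, 12 h attachment; compounds pinned at 5 concentrations, 24 h; CCCP control. Fixed with nuclear dye, primary antibodies 12 h at 10 degrees C, secondary plus cell stain; laser-scanning cytometer read.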
D2 ag: agonists of human D2 dopamine receptor (beta-arrestin); DiscoveRx PathHunter D2 beta-arrestin, luminescence, 90 min; 100% = 57 uM dopamine signal; activation, % (test concentration not listed); actives 0.084% (n = 360,000); P14416; AID 624465; in the data active = activation above about 40%; inconclusive = about 15% to 40%; inactive = below about 15%; further: compound concentration not given in the record; the text of the record calls up to 30% inactive
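DiscoveRx PathHunter D2 beta-arrestin cells (2,100/well) attached overnight, then compound-stimulated 90 min at 37 C in HBSS/10 mM HEPES/0.1% Tween-20 buffer; beta-galactosidase complementation read by luminescence after 1 h at ambient temperature. Dopamine 57 uM final (EC100) as control.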
D2 potentiator: positive allosteric modulators of human D2 dopamine receptor; DiscoveRx D2 beta-arrestin cells, luminescence, 90 min; 100% = 57 uM dopamine signal; P14416; actives 0.23% (n = 360,000); potentiation, % (concentration not given with the values); active = potentiation of 50% or more; inconclusive = 30% to 50%; inactive = 30% or less;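 further: compound concentration not given in the record; tested on top of an EC20 dose of dopamine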
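PathHunter D2 cells, attached overnight at 37 deg C, received compound in DMSO plus dopamine at EC20 (50 nM final) for 90 min at 37 deg C. Beta-arrestin recruitment was read as luminescence after 1 h with detection reagent at ambient temperature.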
Numbers without * were called inactive; ? = inconclusive; . = no result given; & = joins results of further samples; [ ] = remark or other dose.

molecule	CtBP-E1A inh	TRPV1 PAM	Sfp inh	Six1-Eya2 blk	PINK1 expr mod	D2 ag	D2 potentiator
CCCCCN(C(=O)CCC(=O)OCCOc1ccccc1)c1c(N)n(CCCC)c(=O)[nH]c1=O	7	5	.	2	3.6%	-1.2	-11
CCc1ccc2[nH]c(O)c(N=NC3=NC(=O)CS3)c2c1	0	.	-1%	-3	2.6%	-6.7	-13
O=C(Oc1ccc2ccc(=O)oc2c1)c1ccccc1	5	9	-6%	-5	-1.2%	-0.8	-1
Cn1c(N)c(C(=O)COC(=O)c2cccc(S(=O)(=O)NCc3ccccc3)c2)c(=O)n(C)c1=O	-10	.	.	-12	3.1%	10	-3
Cc1cc(C)c(OCC(=O)OCC(=O)NC2CCCCCCC2)c(C)c1	-9	-21	10%	1	-1.5%	-2.1	-10
C#CCOCCOCCOCCNc1nc(N2CCN(C(=O)C([C@@H](C)CC)n3cc(C(N)Cc4ccc(O)cc4)nn3)CC2)nc(N2CCN(C(=O)[C@H](CCC(=O)O)n3cc(C(N)CC(C)C)nn3)CC2)n1 (some centres undefined)	-13	16	8%	-10	2.7%	-2.8	-12
Cc1cc(CN2C(=O)c3ccccc3C2=O)cc(N2CCOCC2)c1	5	.	9%	-5	.	-2.5	-7
CCOC(=O)CSC1=N/C(=C\c2ccc(OC)c(OC)c2)C(=O)N1C	-4	-9	-7%	-17	16%	-1.9	-6
CC(=O)C(C)n1cnc2scc(-c3ccc(C)cc3)c2c1=O (centres undefined)	.	1	6%	1	1.6%	-1.0	?
Cc1ccc(C(=O)OCC(=O)NCCc2ccccc2)cc1C	.	-10	.	3	0.9%	7.2	0
C=CCn1c(COc2ccccc2F)nnc1SCC(=O)NC(=O)NCc1ccco1	-5	26	-15%	-12	.	-2.6	-14
O=C1C=C(C2OC(CO)C(O)C2O)C(=O)N1 (centres undefined)	-1	.	.	1	4.2%	5.7	-58
CCOC(=O)c1c(NC(=O)CSc2nnc(-c3ccc(OC)cc3)o2)sc2c1CCC2	1	.	.	0	11%	-3.2	9
CC(C)NC(=O)CSc1nnc(-c2ccc(F)cc2)c2ccccc12	-11	-1	-15%	-7	2.2%	-5.0	-12
COc1ccc(/C=N/NC(=O)Cc2n[nH]c(=O)[nH]c2=O)cc1	0	?	9%	6	1.2%	-3.7	1
O=C(COC(=O)C1(c2cccc(F)c2)CCCC1)NCc1cccs1	-1	-9	8%	4	3.7%	-5.8	-4
C=C1CCN(Cc2ccccc2)S(=O)(=O)c2ccccc21	-1	-4	0%&6%	10	-0.3%	1.3	-15
CCOC(=O)/C(=C/C=C/c1ccccc1)NC(=O)c1ccccc1	-13	-12	-11%	3	-1.3%	-1.0	-15
Cc1ccc(S(=O)(=O)NCCC(=O)NNC(=O)c2ccccc2O)cc1C	-9	15	.	-4	2.0%	-3.3	-2
CCOC(=O)c1cc(NC(=O)c2ccc(C)cc2)c(=O)oc1C(F)(F)F	-5	-14	6%	3	-1.1%	-5.0	-2
Cc1c(NC(=O)c2ccc(F)c(S(=O)(=O)N3CCOCC3)c2)c(=O)n(-c2ccccc2)n1C	-5	-2	-9%	3	0.7%	-2.3	-9
CCc1cccc2c(=O)c(C(=O)NCCCOC)c[nH]c12	3	?	10%	-5	0.0%	-1.7	-2
CCCN1CCN(C(=O)c2ccc3nc(CC)c(CC)nc3c2)CC1	1	6	17%	-9	-1.7%	-1.5	-6
CC1(C)CC(=O)C(CO)=C(c2cccc3ccccc23)C1=O	-1	8	.	2	-1.1%	-3.7	-2
C/C(=N\Nc1ncc(Cl)cc1Cl)c1ccc(S(=O)(=O)NCc2ccco2)cc1	-16	-6	-16%	-17	-1.2%	0.1	-13
Oc1cccnc1SCc1ccccc1	.	?	.	12	2.6%	-3.8	-13
COC(=O)c1ccc(/C=C/c2c(-c3ccc(OC)cc3)oc3ccccc23)cc1	-1	4	-12%	9	0.1%	0.2	-4
CCn1cnc2sc(C(=O)Oc3cccc(C)c3)c(C)c2c1=O	3	-8	-4%	7	-4.6%	0.2	-1
CCc1nc(SCC(=O)c2ccc(C)c(C)c2)n[nH]1	5	-22	79µM*	5	2.5%	-2.4	-13
O=C(NCc1ccccc1Cl)C1CCCN(S(=O)(=O)c2cccc3nsnc23)C1 (centres undefined)	-2	-7	-3%	0	0.1%	-1.8	-1
CCCCCCc1cc2cc(-c3nnc(-c4ccccc4O)o3)c(=O)oc2cc1O	4	2	0%	6	?	5.9	2
CCc1ccc(OCCNC(=O)c2cccs2)cc1	7	-9	-3%	11	0.1%	12	2
CC(OC(=O)c1ncc(Cl)c(Cl)c1Cl)C(=O)NC1(C#N)CCCCC1 (centres undefined)	-2	-15	.	-3	-1.5%	-1.4	0
CCOc1ncccc1C(=O)OCc1csc(CC(=O)Nc2ccccc2C)n1	-23	0	.	-18	0.7%	7.4	-12
CC(C)(C)NC(=O)CSc1nc2scc(-c3ccccc3)c2c(=O)[nH]1	0	?	2%	0	?	-2.4	-19
O=C1O/C(=C/c2ccccc2)N=C1c1ccccc1	0	-4	27%	-4	6.2%	-5.1	-4
C/C=C/C(=O)OCC(=O)Nc1cc(-c2cc(C)c(C)cc2C)nn1-c1ccccc1	4	11	16%	3	1.8%	2.3	-4
N/C(=N\OC(=O)COc1ccc([N+](=O)[O-])cc1)c1ccncc1	19	-2	14%	8	-1.6%	0.9	-5
Cc1oc(-c2cc3c(cc2Cl)OCO3)nc1CN1CCCC(C(=O)N2CCOCC2)C1 (centres undefined)	0	0	-27%	4	2.4%	-4.5	-5
Cc1c(OCC(=O)NC(Cc2ccc(Cl)cc2)C(=O)O)ccc2c3c(c(=O)oc12)CCCC3 (centres undefined)	0	17	5%	-5	2.5%	6.5	-2
CC(=O)N(CC(=O)O)c1ccccc1C(=O)O	-2	21	9%	14	0.7%	-0.5	0
O=[N+]([O-])c1ccc2nc(-c3ccc(Cl)cc3)n(OCc3ccccc3)c2c1	3	-31	9%	-6	4.2%	-1.8	0
COC(=O)[C@H](Cc1ccccc1)NC(=O)NCc1ccc(S(N)(=O)=O)cc1	5	4	15%	6	-0.1%	-0.9	-20
COCCn1c(SCC(=O)Nc2ccc(C(C)=O)cc2)nc2c([nH]c3ccccc32)c1=O	2	-1	0%	9	4.0%	1.0	-4
NNC(=O)CNC(c1ccccc1)c1cc(Br)ccc1NC(=O)c1cccc(Cl)c1 (centres undefined)	1	2	1%	2	-0.7%	-2.0	-22
N#Cc1cc2sc3nnc(-c4ccncc4)n3c2cc1C#N	-1	1	8%	-14	1.0%	1.0	-6
CN1CCN(c2ncnc3c2ncn3[C@H]2CN(Cc3cccnc3)C[C@@H](CO)O2)CC1	-15	.	.	10	0.6%	-4.6	-8
CCCCNC(=O)c1nc(C2CCN(S(=O)(=O)c3ccccc3)CC2)oc1-c1cccc(C(F)(F)F)c1	14	.	.	4	0.2%	-3.5	3
Nc1[nH]nc2c1NN(c1ccc(Cl)cc1Cl)N2	-1	-4	-7%	8	2.6%	-1.3	11
CC1(C)Oc2ccc3ccc(=O)oc3c2/C(=C/N)C1=O	-8	-21	1%	-5	-2.2%	1.4	-4
O=C(CC1C(=O)NCCN1Cc1cccc(Oc2ccccc2)c1)NCCc1cnccn1 (centres undefined)	.	3	-10%	-4	-0.4%	-3.4	-4
CCOC(=O)c1c(NC(=O)CSc2nnc(-c3ccncc3)n2Cc2ccco2)sc(C)c1C	-6	-15	1%	-19	-1.4%[38.3 µM]	0.3	-15
COc1ccc(C(=O)Nc2ccc(S(=O)(=O)N3CCOCC3)cc2)cc1OC	-23	.	21%	-22	17%	-3.6	-9
COc1cc(OC)cc(C(=O)Oc2c(CN3CCOCC3)cc(Cl)c3cccnc23)c1	?	1	-9%	?	0.1%	-0.9	-14
O=C(Nc1ccc(S(=O)(=O)N2CCCC2)cc1)c1ccc(CN2CCc3ccccc3C2)cc1	-11	-15	26%	-10	1.8%	1.3	-36
Cc1ccc(NC(=O)NNC(=O)C2CCN(Cc3ccc(F)cc3Cl)CC2)cc1	.	-9	18%	15	4.6%	-3.5	-6
Oc1c(-c2cc(-c3ccco3)[nH]n2)ccc2ccccc12	-13	4	7%	-26	8.9%	-3.9	-9
CCCCc1nc(C(N)=O)c2[nH]c(=O)n(-c3ccc(OC)cc3OC)c2n1	.	-6	5%	0	0.1%	-1.2	-6
CC(C)C(N)c1csc(Nc2ccc(C(=O)c3ccccc3)cc2)n1 (centres undefined)	-18	.	.	3	5.2%	6.0	-3
Cc1nn(CCCC(=O)NCCc2ccccc2)c(C)c1[N+](=O)[O-]	3	-1	19%	13	-0.6%	-3.1	-1

More entries follow:
molecule	CtBP-E1A inh	TRPV1 PAM	Sfp inh	Six1-Eya2 blk	PINK1 expr mod	D2 ag	D2 potentiator
Cc1cccc(CN2CCN(C(=O)CCc3nnc(C4CCCCC4)o3)CC2)c1	.	14	20%	23	0.6%	-3.3	-3
COc1ccc(-c2nc3ncccn3c2Nc2ccccc2)cc1	-10	-22	5%	9	-0.1%	-6.6	-7
CCCN(Cc1cc2cc(C)ccc2[nH]c1=O)S(C)(=O)=O	0	3	8%	-1	-0.1%	-4.5	-4
O=C(Cn1cnc2ccccc21)N1CCN(S(=O)(=O)c2ccccc2)CC1	6	-6	13%	8	1.1%	0.4	-4
CCOc1ccc(C(=O)N(CN2CCCC2=O)c2ccccc2)cc1	0	4	5%	1	2.0%	-2.0	0
Clc1ccccc1OCc1nnc(-c2ccccc2Br)o1	17	-6	-5%	25	0.6%	-1.5	-17
OCC[C@@H]1C[C@H](O)[C@@H](O)[C@]2(CCCO2)O1	5	.	.	5	1.4%	-1.9	-3
O=C(O)CN1C(=O)C2C3CC(C2C1=O)C1C(c2ccccc2)c2sc(=O)[nH]c2SC31 (centres undefined)	8	2	-29%	0	0.6%	-0.7	-2

An excerpt of these results, field by field:
> COc1ccc(-c2nc3ncccn3c2Nc2ccccc2)cc1
  CtBP-E1A inh: -10 | TRPV1 PAM: -22 | Sfp inh: 5% | Six1-Eya2 blk: 9 | PINK1 expr mod: -0.1% | D2 ag: -6.6 | D2 potentiator: -7
> CCCN(Cc1cc2cc(C)ccc2[nH]c1=O)S(C)(=O)=O
  CtBP-E1A inh: 0 | TRPV1 PAM: 3 | Sfp inh: 8% | Six1-Eya2 blk: -1 | PINK1 expr mod: -0.1% | D2 ag: -4.5 | D2 potentiator: -4
